CtBP-E1A blk = blocks the CtBP interaction with E1A | AlphaScreen GST-E1A/His-CtBP binding, 1536-well; hits give low values; control for the full effect not named in the record | activity change, % (no concentration beside the values) | 340,000 compounds, 0.49% hits | AID 651724; in the data active means activity change below about -65%; inconclusive means about -30% to -65%; inactive means above about -30%; note: % is set by controls: 0 for no effect and ±100 for the full control effect
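Protein mix (5X: 125 nM each GST-E1A, His-CtBP) was incubated with pinned compound 2 h at 37 deg C in dark, in 50 mM Tris pH 8.0 buffer with 300 mM NaCl. Glutathione donor and nickel acceptor beads followed; AlphaScreen signal read after 1 h.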
D2 ag = agonists of human D2 dopamine receptor (beta-arrestin); DiscoveRx PathHunter D2 beta-arrestin, luminescence, 90 min; 100% = 57 uM dopamine signal; activation, % (test concentration not listed); 360,000 compounds, 0.084% hits; AID 624465; in the data active = activation above about 40%; inconclusive = about 15% to 40%; inactive = below about 15%; note: compound concentration not given in the record; the text of the record calls up to 30% inactive
Target sequence (P14416 whole entry, looked up): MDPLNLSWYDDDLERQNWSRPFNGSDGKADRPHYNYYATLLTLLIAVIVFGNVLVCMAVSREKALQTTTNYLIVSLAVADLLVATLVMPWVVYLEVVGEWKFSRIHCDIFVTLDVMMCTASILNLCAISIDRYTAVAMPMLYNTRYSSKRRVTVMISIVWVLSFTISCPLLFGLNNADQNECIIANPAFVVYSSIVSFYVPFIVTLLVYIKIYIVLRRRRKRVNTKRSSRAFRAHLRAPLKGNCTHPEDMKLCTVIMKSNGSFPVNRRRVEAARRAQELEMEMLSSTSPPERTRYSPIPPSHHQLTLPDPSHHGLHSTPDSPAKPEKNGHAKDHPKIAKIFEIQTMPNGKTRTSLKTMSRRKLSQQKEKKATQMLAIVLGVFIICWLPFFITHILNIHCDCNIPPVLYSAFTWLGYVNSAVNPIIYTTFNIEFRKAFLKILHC
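DiscoveRx PathHunter D2 beta-arrestin cells (2,100/well) attached overnight, then compound-stimulated 90 min at 37 C in HBSS/10 mM HEPES/0.1% Tween-20 buffer; beta-galactosidase complementation read by luminescence after 1 h at ambient temperature. Dopamine 57 uM final (EC100) as control.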
D2 PAM = potentiates the human D2 dopamine receptor allosterically; DiscoveRx D2 beta-arrestin cells, luminescence, 90 min; 100% = 57 uM dopamine signal; potentiation, % (concentration not given with the values); 360,000 compounds, 0.23% hits; active = potentiation of 50% or more; inconclusive = 30% to 50%; inactive = 30% or less;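 note: tested on top of an EC20 dose of dopamine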
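PathHunter beta-arrestin assay in DiscoveRx D2 cells. Compounds were added with an EC20 of dopamine (50 nM final) for 90 min at 37 deg C. Luminescence was read 1 h after detection reagent, with 57 uM dopamine as the EC100 control.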
TRPML1 ag = activates the human TRPML1 channel; TRPML1-expressing cells, Ca2+ dye fluorescence, FDSS; host cell line not named in the record; reference of the full effect not given here; activation, % (concentration not given with the values); 410,000 compounds, 0.12% hits; in the data active = activation above about 50%; inconclusive = about 30% to 50%; inactive = below about 30%; note: 0% is about no effect; the text of the record puts the active cut at 80%
Target sequence (Q9GZU1 whole entry, looked up): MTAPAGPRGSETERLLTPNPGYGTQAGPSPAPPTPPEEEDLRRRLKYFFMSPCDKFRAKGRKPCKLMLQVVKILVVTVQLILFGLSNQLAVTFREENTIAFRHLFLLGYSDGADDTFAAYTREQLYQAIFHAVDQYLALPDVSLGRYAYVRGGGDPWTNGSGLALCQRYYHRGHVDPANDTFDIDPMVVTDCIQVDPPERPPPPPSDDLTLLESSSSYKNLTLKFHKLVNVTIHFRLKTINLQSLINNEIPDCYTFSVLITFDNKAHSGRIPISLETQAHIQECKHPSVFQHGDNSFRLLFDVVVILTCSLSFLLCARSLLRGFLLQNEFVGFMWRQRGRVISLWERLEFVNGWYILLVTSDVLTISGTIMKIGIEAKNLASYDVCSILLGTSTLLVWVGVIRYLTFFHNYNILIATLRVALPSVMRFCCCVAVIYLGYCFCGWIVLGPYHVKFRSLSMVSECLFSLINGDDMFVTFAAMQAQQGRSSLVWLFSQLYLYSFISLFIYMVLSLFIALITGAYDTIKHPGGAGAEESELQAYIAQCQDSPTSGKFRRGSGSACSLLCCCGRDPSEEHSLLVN
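Cells: TRPML1-DL, 1X Tet inducer, ~16 h at 37 degrees C/5% CO2. Dye: ABD Ca8 no-wash + quencher, 45-90 min RT. Read: 10 s baseline, compound add, 110 s agonist phase; 54-4 EC80 (4uM final), 110 s antagonist phase.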
Six1-Eya2 blk = Six1/Eya2 interaction inhibition; AID 651725; Q15475+O00167; AlphaScreen GST-Six1/His-Eya2 binding, biochemical; hits give low values; control for the full effect not named in the record; 360,000 compounds, 0.56% hits; activity change, % (no concentration beside the values); in the data active = activity change below about -65%; inconclusive = about -30% to -65%; inactive = above about -30%; note: % is set by controls: 0 for no effect and ±100 for the full control effect
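GST-Six1 + His-Eya2 (5X stock: 250/500 nM); Tris pH 8.0, 300 mM NaCl, 0.05% BSA, 0.02% Tween 20; GSH donor/Ni acceptor beads; 1 h 37 °C dark; AlphaScreen readout.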
PINK1 modulator = modulators of PINK1 expression. Potency, µM (titrated, usually from 76.6 µM), inactives show at the highest dose activation (PINK1 increase), usual class: activators. PINK1 immunofluorescence, high-content cytometry, 24 h. 410,000 compounds, 0.2% hits; active = well fitted activation curve with a large enough effect; inconclusive = small, poorly fitted or top-dose-only effect; inactive = flat fitted curve, though single readings scatter; cell line not stated here;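 note: potency is the fitted concentration of half-maximal effect; % of control where 0% means no effect; nearly all actives have a fitted effect of over 65% in size; a mitochondrial uncoupler was the plate control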
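Stable cell line treated 24 h with compounds at 5 concentrations (CCCP controls), then fixed and immunostained for PINK1 plus nuclear and cell stains; PINK1 immunofluorescence quantified by laser-scanning microplate cytometry.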
* marks the source's active call; other numbers are inactive results.

Sample of the layout:
For COCCSc1nnc(NC(=O)C2CC(=O)N(c3ccc(OC)cc3)C2)s1 (stereo not given) the results were CtBP-E1A blk 4.6, D2 ag -6.2, D2 PAM -6.6, TRPML1 ag -0.7, Six1-Eya2 blk 0.2 and PINK1 modulator 1.1%.
CCOC(=O)N1CCN(C(=O)/C(=C/c2ccc(OC)c(OC)c2)NC(=O)c2ccccc2)CC1 was read as CtBP-E1A blk -5.3, D2 ag 4.2, D2 PAM -6.1, TRPML1 ag 0.0, Six1-Eya2 blk -3.7 and PINK1 modulator -0.6%.
`CSc1nnnn1-c1ccc(C(=O)O)cc1` gave CtBP-E1A blk -2.4, D2 ag -0.3, D2 PAM 0.6, TRPML1 ag -0.7, Six1-Eya2 blk 10.6 and PINK1 modulator 1.0%.
Screening CSCC[C@H](NC(=O)C1CCN(C(=O)[C@@H](N)Cc2ccccc2)CC1)C(=O)O returned CtBP-E1A blk 8.5, D2 ag -3.1, D2 PAM -5.0, TRPML1 ag 2.6, Six1-Eya2 blk 5.3 and PINK1 modulator -1.4%.

The list itself, from the start:
For COCCSc1nnc(NC(=O)C2CC(=O)N(c3ccc(OC)cc3)C2)s1 (stereo not given) the results were CtBP-E1A blk 4.6, D2 ag -6.2, D2 PAM -6.6, TRPML1 ag -0.7, Six1-Eya2 blk 0.2 and PINK1 modulator 1.1%.
CCOC(=O)N1CCN(C(=O)/C(=C/c2ccc(OC)c(OC)c2)NC(=O)c2ccccc2)CC1 was read as CtBP-E1A blk -5.3, D2 ag 4.2, D2 PAM -6.1, TRPML1 ag 0.0, Six1-Eya2 blk -3.7 and PINK1 modulator -0.6%.
`CSc1nnnn1-c1ccc(C(=O)O)cc1` gave CtBP-E1A blk -2.4, D2 ag -0.3, D2 PAM 0.6, TRPML1 ag -0.7, Six1-Eya2 blk 10.6 and PINK1 modulator 1.0%.
Screening CSCC[C@H](NC(=O)C1CCN(C(=O)[C@@H](N)Cc2ccccc2)CC1)C(=O)O returned CtBP-E1A blk 8.5, D2 ag -3.1, D2 PAM -5.0, TRPML1 ag 2.6, Six1-Eya2 blk 5.3 and PINK1 modulator -1.4%.
`COc1ccc(NC(=O)/C(=C/c2ccc(OC(C)=O)c(OC)c2)NC(C)=O)cc1` gave CtBP-E1A blk 0.0, D2 ag -4.1, D2 PAM -7.6, TRPML1 ag -0.3, Six1-Eya2 blk 14.6 and PINK1 modulator 0.8%.
For CC1CC(CC(=O)NC(=S)Nc2ccccc2Cl)C(=O)O1 (stereo not given) the results were D2 ag -6.1, D2 PAM -0.5, TRPML1 ag 0.1, Six1-Eya2 blk 11.8 and PINK1 modulator -1.2%.
`CCN1C(=O)[C@H]2[C@H]3CN=C(SCc4ccc(C#N)cc4)N3[C@@](Cc3ccccc3)(C(=O)OC)[C@H]2C1=O` gave CtBP-E1A blk -3.0, D2 ag 1.6, D2 PAM -6.9, TRPML1 ag 2.9, Six1-Eya2 blk -0.1 and PINK1 modulator 0.7%.
Cc1cc(=O)oc2ccc(OCC(=O)N3CCc4ccccc43)cc12 was read as CtBP-E1A blk 2.0, D2 ag -4.0, D2 PAM -4.4, TRPML1 ag -1.3, Six1-Eya2 blk -0.8 and PINK1 modulator -1.0%.
For COCCn1c(SCCN2CCCCC2)nc2ccccc2c1=O the results were CtBP-E1A blk -3.9, D2 ag 0.7, D2 PAM -31.6, TRPML1 ag -0.2, Six1-Eya2 blk 3.0 and PINK1 modulator -2.1%.
For O=S(=O)(c1cccs1)N1CCN(CC(O)COC2CCCc3ccccc32)CC1 (stereo not given) the results were CtBP-E1A blk -0.6, D2 ag 0.0, D2 PAM 4.6, TRPML1 ag 0.0, Six1-Eya2 blk 1.9 and PINK1 modulator 0.0%.
For COc1ccccc1/C=C/CN1CCCC(CCC(=O)NCc2ccc(F)c(F)c2)C1 (stereo not given) the results were CtBP-E1A blk -1.1, D2 ag 1.1, D2 PAM -11.4, TRPML1 ag 0.6, Six1-Eya2 blk -4.1 and PINK1 modulator -0.8%.
C=CCC[C@H](Cc1ccc(F)cc1)C(=O)OC[C@@H](Cc1c[nH]c2ccccc12)NC(=O)[C@H](CC=C)CC(=O)NCCO was read as CtBP-E1A blk -7.4, D2 ag 0.3, D2 PAM 1.3, TRPML1 ag -0.4, Six1-Eya2 blk -7.2 and PINK1 modulator inconclusive.
For Cc1cc(C(=O)COC(=O)c2ccc(Br)o2)c(C)n1C the results were CtBP-E1A blk -7.4, D2 ag -4.5, D2 PAM -2.6, TRPML1 ag -1.4, Six1-Eya2 blk -4.6 and PINK1 modulator -0.1%.
`CCNc1nc(N)nc(Oc2ccc(C(=O)OC)cc2)n1` gave CtBP-E1A blk 5.3, D2 ag -3.1, D2 PAM -1.3, TRPML1 ag -0.1, Six1-Eya2 blk 0.6 and PINK1 modulator -0.4%.
`CC(=O)N(C)c1ccc(NC(=O)Cc2cccc3ccccc23)cc1` gave CtBP-E1A blk -0.3, D2 ag -1.4, D2 PAM -10.2, TRPML1 ag 0.9, Six1-Eya2 blk -0.4 and PINK1 modulator 1.8%.
Screening Cc1ccc(-c2nnn(CC(=O)N(CCN3CCOCC3)C(C(=O)NC(C)(C)C)c3ccco3)n2)cc1 (stereo not given) returned CtBP-E1A blk -0.6, D2 ag -0.4, D2 PAM -5.0, TRPML1 ag -0.6, Six1-Eya2 blk 7.6 and PINK1 modulator -0.1%.
`CN(c1ccccc1)S(=O)(=O)c1ccc(C(=O)N2CCN(c3ccccc3)CC2)cc1` gave CtBP-E1A blk 0.5, D2 ag -2.0, D2 PAM -4.6, TRPML1 ag -0.6, Six1-Eya2 blk 2.8 and PINK1 modulator -0.1%.
`C/C(=N\N1CCN(Cc2ccc(C)cc2)CC1)c1ccco1` gave CtBP-E1A blk 8.2, D2 ag -3.0, D2 PAM -37.3, TRPML1 ag 0.1, Six1-Eya2 blk 10.1 and PINK1 modulator 1.6%.
O=C(CCC(=O)OCC(=O)c1ccc(Br)cc1)NC1CCCCC1 was read as CtBP-E1A blk 2.9, D2 ag -9.5, D2 PAM -37.0, TRPML1 ag 2.8, Six1-Eya2 blk -0.7 and PINK1 modulator 0.2%.
COc1ccc(C(=O)N2CCNC(=O)C2CC(=O)Nc2cccc(Cl)c2Cl)cc1 (stereo not given) was read as CtBP-E1A blk 3.1, D2 ag -3.3, D2 PAM -5.1, TRPML1 ag 0.6, Six1-Eya2 blk -5.5 and PINK1 modulator 1.3%.
Screening O=C(c1cn(-c2ccccc2)nc1-c1cccnc1)N1CCN(S(=O)(=O)c2ccccc2F)CC1 returned D2 ag -2.7, D2 PAM -9.9, TRPML1 ag -0.1, Six1-Eya2 blk 14.6 and PINK1 modulator 0.7%.
`CN(Cc1cccc(F)c1)C(=O)C1CC(=O)N(Cc2ccco2)C1` (stereo not given) gave CtBP-E1A blk -11.7, D2 ag -1.4, D2 PAM -12.9, TRPML1 ag -0.8, Six1-Eya2 blk 1.6 and PINK1 modulator -0.1%.
For O=C(Nc1ccccc1)c1cccnc1N1CCOCC1 the results were CtBP-E1A blk -2.0, D2 ag -0.7, D2 PAM -8.0, TRPML1 ag -0.7, Six1-Eya2 blk 2.9 and PINK1 modulator -2.1%.
CC(=O)Nc1ccc(S(=O)(=O)NNC(=O)CCc2ccccc2)cc1 was read as CtBP-E1A blk 8.4, D2 ag -0.3, D2 PAM -4.7, TRPML1 ag -0.4, Six1-Eya2 blk 6.7 and PINK1 modulator 0.5%.
OC(Cn1cncn1)c1ccc(Cl)cc1Cl (stereo not given) was read as CtBP-E1A blk -0.8, D2 ag 0.1, D2 PAM -0.3, TRPML1 ag -0.4, Six1-Eya2 blk 4.7 and PINK1 modulator -2.3%.
For CCCC1(C(=O)OCC)NC(c2ccc(N(C)C)cc2)C2C(=O)N(c3ccccc3)C(=O)C21 (stereo not given) the results were CtBP-E1A blk -11.5, D2 ag -3.4, D2 PAM -18.6, TRPML1 ag -0.5, Six1-Eya2 blk -12.0 and PINK1 modulator -0.8%.
Screening CCC(=O)Nc1c(C(=O)N2CCN(c3ccccn3)CC2)cnn1-c1ccc(Cl)cc1 returned CtBP-E1A blk 2.7, D2 ag -0.1, D2 PAM -19.8, TRPML1 ag 0.4, Six1-Eya2 blk -1.4 and PINK1 modulator 1.2%.
Screening Cc1ccc(C)n1-c1ccsc1C(=O)CC#N returned CtBP-E1A blk 2.3, D2 ag 2.2, D2 PAM -2.7, TRPML1 ag 1.3, Six1-Eya2 blk 2.5 and PINK1 modulator -0.4%.
`O=C(NCCCNCCCNC(=O)c1ccccn1)c1ccccn1` gave CtBP-E1A blk 0.3, D2 ag -0.7, D2 PAM -25.4, TRPML1 ag 0.2, Six1-Eya2 blk -2.0 and PINK1 modulator -1.1%.
`CC1=C(C(=O)OC(C)C)C2(O)C(=O)c3ccccc3C2(O)N1` (stereo not given) gave CtBP-E1A blk -0.8, D2 ag -6.9, D2 PAM -33.6, TRPML1 ag 0.4, Six1-Eya2 blk 1.2 and PINK1 modulator -0.7%.
`COc1cccc2c1CCC(NC(C)=O)C2=O` (stereo not given) gave CtBP-E1A blk -2.6, D2 ag 14.8, D2 PAM inconclusive, TRPML1 ag -0.4, Six1-Eya2 blk 16.3 and PINK1 modulator 0.6%.
COc1cc2ncc(S(=O)(=O)c3ccccc3)c(N3CCC4(CC3)OCCO4)c2cc1OC was read as CtBP-E1A blk -11.4, D2 ag inconclusive, D2 PAM 26.9, TRPML1 ag 0.5, Six1-Eya2 blk -5.1 and PINK1 modulator 1.6%.
COC(=O)C1=C(\O)CCCC/C=C\1C(=O)O was read as CtBP-E1A blk 0.0, D2 ag -0.8, D2 PAM -8.1, TRPML1 ag 0.9, Six1-Eya2 blk 9.5 and PINK1 modulator -2.7%.
`Cc1c(C(=O)OC(C)CCN(C)C)oc2ccccc12` (stereo not given) gave CtBP-E1A blk 0.8, D2 ag -1.1, D2 PAM -12.7, TRPML1 ag 0.0, Six1-Eya2 blk -1.2 and PINK1 modulator -3.5%.
For CN(C)S(=O)(=O)c1ccc2c(c1)Cc1cc(S(=O)(=O)N(C)C)ccc1-2 the results were CtBP-E1A blk 8.4, D2 ag -0.9, D2 PAM -2.1, TRPML1 ag 0.3, Six1-Eya2 blk 10.4 and PINK1 modulator 6.4%.
For COc1ccccc1N(C(=O)CNS(=O)(=O)c1ccccc1)C(C(=O)NCc1ccco1)C(C)C (stereo not given) the results were CtBP-E1A blk 4.2, D2 ag -2.3, D2 PAM 8.6, TRPML1 ag 0.3, Six1-Eya2 blk 2.2 and PINK1 modulator 0.4%.
Screening O=C(COc1ccc2c3c(c(=O)oc2c1)CCC3)N1CCCC1 returned CtBP-E1A blk 0.0, D2 ag -1.7, D2 PAM -10.8, TRPML1 ag 0.7, Six1-Eya2 blk 0.6 and PINK1 modulator 0.7%.
Screening O=C(CCN1C(=O)c2ccncc2C1=O)NCc1ccc(Cl)cc1 returned CtBP-E1A blk 13.2, D2 ag -4.4, D2 PAM -2.6, TRPML1 ag -0.3, Six1-Eya2 blk 8.0 and PINK1 modulator -2.8%.
For Nc1ccccc1Oc1c(F)c(F)c(Oc2ccccc2N)c(F)c1F the results were CtBP-E1A blk 2.3, D2 ag 2.2, D2 PAM -6.1, TRPML1 ag 8.4, Six1-Eya2 blk -0.9 and PINK1 modulator 0.6%.
